Assay outcomes: PubChem, Johns Hopkins Ion Channel Center
CHT PAM = allosteric activators of human choline transporter CHT. CHT-expressing cells, membrane potential dye, choline EC20; stronger effect = higher value; LV-AA mutant CHT in HEK293 cells. Q9GZV3. actives 0.49% (n = 310,000). B-score at 10 µM;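 active = initial fluorescence not abnormally high and integrated response B-score, plate-corrected, over 3 SD above library mean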
Target sequence (Q9GZV3 whole entry, looked up): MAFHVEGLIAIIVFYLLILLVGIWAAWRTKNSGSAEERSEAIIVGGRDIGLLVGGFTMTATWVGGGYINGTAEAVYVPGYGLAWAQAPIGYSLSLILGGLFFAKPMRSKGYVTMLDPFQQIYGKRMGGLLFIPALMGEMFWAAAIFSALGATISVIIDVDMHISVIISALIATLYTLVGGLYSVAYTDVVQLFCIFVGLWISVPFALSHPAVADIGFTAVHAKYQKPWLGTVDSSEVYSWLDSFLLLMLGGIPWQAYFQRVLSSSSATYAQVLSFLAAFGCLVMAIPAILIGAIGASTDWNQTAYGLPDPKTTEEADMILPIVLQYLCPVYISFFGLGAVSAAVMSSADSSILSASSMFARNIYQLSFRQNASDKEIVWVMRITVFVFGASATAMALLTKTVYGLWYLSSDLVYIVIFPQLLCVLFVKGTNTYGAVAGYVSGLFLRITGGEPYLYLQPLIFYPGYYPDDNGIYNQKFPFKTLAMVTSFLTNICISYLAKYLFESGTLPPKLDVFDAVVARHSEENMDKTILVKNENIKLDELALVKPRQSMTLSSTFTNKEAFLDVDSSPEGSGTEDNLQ
Calls only; i = inactive.

Compound,CHT PAM
CCSc1ncc(Cl)c(C(=O)Nc2ccccc2F)n1,i
CCCCN(CCCNC(=O)C1CCN(S(=O)(=O)CC)CC1)c1ccccc1,i
CC(=O)N1CCN(CC(=O)Nc2cc(F)ccc2C)CC1,i
O=C(CC1Sc2ccccc2NC1=O)Nc1cccnc1 (centres undefined),i
CCC(=O)N1c2ccc(S(=O)(=O)CCC(=O)NCc3ccc4c(c3)OCO4)cc2CC1C (centres undefined),i
O=C1c2ccccc2NC(c2cn[nH]c2-c2ccccc2)N1O (centres undefined),i
CC(=O)Nc1ccc2c(c1)OCCOCCOc1cc(NC(C)=O)ccc1OCCO2,i
COc1ccc(/C=C(\NC(=O)c2ccc(C)cc2)C(=O)NCC2CCCO2)cc1 (centres undefined),i
O=C(NCc1ccccn1)C(=O)NCC1OCCN1S(=O)(=O)c1ccc([N+](=O)[O-])cc1 (centres undefined),i
CCC(C)CCN1CCN=C1Nc1ccccc1 (centres undefined),i
CCN(CC)S(=O)(=O)c1ccc2[nH]c(=O)cc(C(=O)NCC3CCCO3)c2c1 (centres undefined),i
Cc1ccc(N=C2NC(=O)CS2)c(C)c1,i
COC(=O)C1CCN(C(=O)C(C)Oc2ccc(Cl)cc2Cl)CC1 (centres undefined),i
COc1ccc(NC(=O)C(OC(=O)c2ccc([N+](=O)[O-])o2)c2ccccc2)cc1Cl (centres undefined),i
CN(C)c1ccc(C(CNC(=O)c2ccccc2Br)c2c[nH]c3ccccc23)cc1 (centres undefined),i
CCCS(=O)(=O)Nc1cccc(-c2nc3cccnc3s2)c1,i
CCNC(=S)NNC(=O)Cc1ccccc1,i
COc1ccc(OC)c(NC(=O)C(=O)NNC(=O)c2cccs2)c1,i
C/C(=N/OCC(=O)Nc1ccccc1)c1cccs1,i
CCn1c(=O)c2c(nc3n2CC(C)CN3CCc2ccccc2)n(C)c1=O (centres undefined),i
CCN(CC)c1nc(-c2ccccc2)ncc1S(=O)(=O)c1ccc(C)cc1,i
CCc1ccc(NC(=O)CSc2ccc(-c3cccnc3)nn2)cc1,i
NS(=O)(=O)c1ccc(NC(=S)NCc2ccc(Cl)cc2)cc1,i
CCN(CC)c1ccc(C(=O)Nc2ccccc2)cc1[N+](=O)[O-],i
CC(c1ccccn1)N(Cc1ccco1)C(=S)Nc1cccc(F)c1 (centres undefined),i
CCCc1[nH]nc2c1C(c1ccc(OC(=O)N3CCOCC3)cc1)C(C#N)=C(N)O2 (centres undefined),i
COc1ccc(OC)c(CNC(=O)CCCn2ccc3cc(S(=O)(=O)N4CCCC4)ccc32)c1,i
O=C(NCc1n[nH]c(=S)n1-c1ccccc1Cl)c1ccc(S(=O)(=O)N2CCCCC2)cc1,i
CCN(CC)CCn1c2c(c(SCC(=O)Nc3ccc(C(C)C)cc3)nc1=O)CCCC2,i
CCOC(=O)c1sc(=S)n(-c2ccccc2)c1SC,i
Cn1c(CCCOc2ccc(Cl)cc2Cl)nnc1SCC(=O)Nc1cccc(F)c1,i
CCOC(=O)c1cc(NC(=O)c2ccco2)ccc1N1CCOCC1,i
Cc1noc(C)c1S(=O)(=O)N(CC(=O)Nc1ccc2c(c1)OCO2)c1ccc(C(C)C)cc1,i
CN1CCN(C(=O)/C=C/c2ccc3c(c2)OCO3)CC1,i
CCOC(=O)CN1C(=O)SC(CC(=O)Nc2nccs2)C1=O (centres undefined),i
O=C(Nc1cccc(S(=O)(=O)N2CCCC2)c1)c1cc(-c2ccccn2)nc2ccccc12,i
CC(C)Cn1c(N)c(C(=O)NCc2cccs2)c2nc3ccccc3nc21,i
O=C(CSc1nnc(Cn2c(=O)sc3ccccc32)n1-c1ccccc1)NCc1ccco1,i
CC[C@H](CO)NCCN[C@H](CC)CO,i
CC(C)(C)SCCNC(=O)CN1C(=O)c2cccc3cccc1c23,i
Cc1ccc(NS(=O)(=O)c2ccc(N3CCN(c4ccc(O)cc4)CC3)c([N+](=O)[O-])c2)c(C)c1,i
CCOC(=O)C1CCN(C(=O)Nc2ccc3nc(-c4ccco4)c(-c4ccco4)nc3c2)CC1,i
CC(O)c1nc2ccccc2n1CCCCOc1ccccc1 (centres undefined),i
Cc1nnnn1/C(=C\c1ccccc1)C(=O)OCC(=O)NC(C)(C)C,i
CC(=O)c1ccc(NC(=O)CCC(=O)OCC(=O)c2cccc([N+](=O)[O-])c2)cc1,i
O=C(Nc1ccccn1)NC1CCS(=O)(=O)C1 (centres undefined),i
CCCCN(C(=O)CCC(=O)Nc1cc(C)on1)C(C(=O)NC1CCCC1)c1cccc(OC)c1 (centres undefined),i
Cn1nc(CC(=O)Nc2cccnc2N2CCOCC2)c2ccccc2c1=O,i
CCOC(=O)C1CCN(C(=O)c2cn(CCOC)c(=O)c3c2c2ccccc2n3C)CC1,i
CCOC(=O)c1cc(C)sc1NC(=O)CSC1=NCCS1,i

More results:
Compound,CHT PAM
O=S(=O)(c1ccc(Cl)cc1)N1CCC(N2CCOCC2)CC1,i
Cc1ccc(OCCn2c(C)nc3ccccc32)cc1,i
O=S(=O)(c1ccccc1)N(Cc1ccc(Cl)cc1)c1ccncc1,i
CC1(C)S[C@@H]2[C@H](NC(=O)COc3ccccc3)C(=O)N2C1C(=O)OCc1ccccc1 (some centres undefined),i
COc1ccc(-c2nn(C)c(=O)c3ccccc23)cc1CNC(=O)CN1CCOCC1,i
Cc1ccc2[nH]cc(C(=O)CN3CCC4(CC3)OCCO4)c2c1,i
COc1ccc(CCCc2n[nH]c(=S)n2C)cc1C,i
Cc1cc(N)n(-c2ccc(S(=O)(=O)c3ccc(C(C)C)cc3)cc2)n1,i
CCOc1ccc(NC(=O)CCN2CCN(S(=O)(=O)c3ccc(Cl)cc3)CC2)cc1,i
COCCCNCCOCCSc1ccc(Cl)cc1,i

The closing three compounds of the section before come first, to join the parts.
Compound,CHT PAM
Cc1cc(N)n(-c2ccc(S(=O)(=O)c3ccc(C(C)C)cc3)cc2)n1,i
CCOc1ccc(NC(=O)CCN2CCN(S(=O)(=O)c3ccc(Cl)cc3)CC2)cc1,i
COCCCNCCOCCSc1ccc(Cl)cc1,i
O=C(CN1CCN(Cc2cccc(F)c2)CC1)NCc1ccccc1,i
O=C(O)c1ccccc1C(=O)NNc1ccc(Cl)cc1Cl,i
Cc1ncc(CN2CCC(CO)(CCOc3ccccc3)CC2)s1,i
O=C(Nc1ccc(Br)cn1)c1cccc2c1-c1ccccc1C2=O,i
O=C(c1scc2c1CCCC2)N1CCCCC1,i
CCOC(=O)N1CCN(C(=O)c2ccc3c(c2)N=C(CC)c2cc(C)ccc2S3)CC1,i
CCCCN1C(=O)C(=O)N(CC(=O)Nc2ccccc2C(=O)OCC)C1=O,i
CC(NC(=O)C12CC3CC(CC(C3)C1)C2)C(=O)N/N=C/C1=C(N2CCOCC2)C(=C\c2cccc([N+](=O)[O-])c2)/CC1 (centres undefined),i
CS(=O)(=O)N1CCN(c2ccccc2NC(=O)CSc2ccc(Cl)cc2)CC1,i
CC(C)OC(=O)Nc1ccc(Oc2c(F)c(F)c(F)c(F)c2F)cc1,i
CN(C)C(C(=O)NC1CCCCC1)c1ccc(Cl)cc1 (centres undefined),i
O=c1cc(CSc2nnc(Nc3ccccc3F)s2)nc2sccn12,i
O=C(Cn1cncn1)N/N=C/c1c2ccccc2cc2ccccc12,i
Cc1nc(NC(=O)c2ccc(-c3cc4ccccc4oc3=O)cc2)ccc1Br,i
Cc1ccc(C)c(NC(=S)NNC(=S)Nc2ccc(C(C)C)cc2)c1,i
COCCCN(C(=O)c1ccccc1F)c1nc(-c2ccc(OC)cc2)cs1,i
Cc1nc2scc(C)n2c(=O)c1S(=O)(=O)N1CCN(c2ccccc2)CC1,i
Cc1ccc(CN2CCN(C3CSCCSC3)CC2CCO)cc1 (centres undefined),i
CCn1ncc(S(=O)(=O)NCc2ccccc2Cl)c1C,i
O=C1N/C(=C/c2cccn2-c2ccc(F)cc2)C(=O)N1Cc1ccccc1F,i
O=C(Nc1cc2c3c(c1)CC(=O)N3CCC2)c1ccc(Br)o1,i
O=C(CCn1c(=O)c2sccc2n(CC(=O)OCc2ccccc2)c1=O)NCc1ccccc1,i
COc1ccc(-c2cc(C(F)(F)F)n3nc(C(=O)N4CCCCC4)cc3n2)cc1,i
O=C(CSc1nc(C(F)(F)F)cc(=O)[nH]1)N1CCCCCC1,i
COc1ccc(NC(=O)C2=CC(c3ccco3)=NS(=O)(=O)N2C)cc1,i
C/C(=N\NC(=O)c1ccccc1F)c1ccc(C#N)cc1,i
CCc1nn(CCCC(=O)NCc2ccccc2C)c(=O)c2cc3occc3n12,i
COc1cc(C(=O)Oc2cccc(/C=N/NC(=O)c3cc(C)[nH]n3)c2)cc(OC)c1OC,i
CCCC(=O)Nc1nnc(-c2ccco2)s1,i
Cn1c(=O)c2ccccc2n(CC(=O)N2CCCc3ccccc32)c1=O,i

Retrieved by structure from above (two):
Compound,CHT PAM
O=C(Nc1cc2c3c(c1)CC(=O)N3CCC2)c1ccc(Br)o1,i
COc1cc(C(=O)Oc2cccc(/C=N/NC(=O)c3cc(C)[nH]n3)c2)cc(OC)c1OC,i

(cont.)
Compound,CHT PAM
O=C1Nc2ccccc2N(O)N1c1ccc(Cl)c(Cl)c1,i
COC(=O)c1ccc(C(=O)OC)c(NC(=S)N2CCN(c3ccccc3F)CC2)c1,i
O=S(=O)(Nc1cccc(C(F)(F)F)c1)c1cnc[nH]1,i
COc1ccc(C2/C=C\CNCC(=O)N2Cc2ccc(F)cc2)cc1 (centres undefined),i
CC(C)(C)c1nc2scc(-c3ccc(Cl)cc3)c2c(=O)o1,i
CC(CCc1ccccc1)NC(=O)COC(=O)c1ccccc1O (centres undefined),i
CCC(C(=O)O)N1C(=O)/C(=C/c2cccn2C)SC1=S (centres undefined),i
COc1ccccc1NC(=O)CCn1c(=O)sc2ccccc21,i
CC(=O)Oc1ccc(C(=O)Nc2ccccc2C(=O)N2CCCC2)cc1,i
CN(Cc1nc2ccccc2c(=O)[nH]1)c1ccccc1,i
Cc1ccc(-n2c(C)cc(C(=O)COc3cccnc3[N+](=O)[O-])c2C)cc1,i
COc1ccc(CNC(=O)c2ccc(N3CCC4(CC3)CC(c3ccc(Cl)cc3)=NO4)c(NC(=O)c3ccccc3)c2)cc1,i
CSc1ccc(Cl)c(C(=O)OCC(=O)NC2CC2)c1,i
O=C(COC(=O)c1cc(Cl)cc(Cl)c1)NCCN1C(=O)CSC1=O,i
Cc1cccc2c(-c3ccccc3)cc(=O)[nH]c12,i
CCOc1ccc(/C=N\NC(=O)c2c(C)nc3cc(C)ccn23)cc1,i
N#Cc1c(N)c(C(=O)c2ccccc2)n2ccccc12,i
COC(=O)c1nnn(-c2ccc(F)c(Cl)c2)c1C(=O)OC,i
COc1ccc(-c2cc(C(=O)N3CCN(c4ncccn4)CC3)c3ccccc3n2)c(OC)c1,i
CC1CCCCC1NCC(=O)Nc1ccccc1-c1ccccc1 (centres undefined),i
Cc1cccc(NC(=O)CCc2c(C)nc3ncnn3c2C)n1,i
CC(Sc1ccccc1)C(=O)NN=C1CCCCCC1 (centres undefined),i
O=C(Nc1ccc(Cl)cn1)Nc1ccc(Cl)cn1,i
Cc1csc(N(C(=O)c2cccc(S(=O)(=O)N3CCCC3)c2)c2ccccc2)n1,i
CCC(Cc1ccccc1)NC(=O)C1CCN(S(=O)(=O)c2c(C)noc2C)CC1 (centres undefined),i
COCCN(C(=O)COC(=O)c1sccc1C)c1c(N)n(Cc2ccccc2)c(=O)[nH]c1=O,i
COc1ccc(C(=O)Nc2ccccc2)cc1S(=O)(=O)Nc1cc(C)on1,i
Cc1ccc(C(=O)C2=C(O)C(=O)N(Cc3ccco3)C2c2cccc(Br)c2)o1 (centres undefined),i
COCCNC(=O)CN(CCc1ccccc1)S(=O)(=O)c1ccc(Br)cc1,i
CCc1ccccc1NC(=O)CCNC(=O)Cn1ccc2ccccc2c1=O,i
Cc1c(NC(=S)NC(=O)c2ccco2)cccc1-c1nc2ncccc2o1,i
CCOc1ccc(S(=O)(=O)N2CCN(Cc3ccc4c(c3)OCO4)CC2)cc1OCC,i
NC(=O)c1ccc(NC(=O)CCC(=O)N2CCN(S(=O)(=O)c3ccc(Cl)cc3)CC2)cc1,i
CC(=O)C1=C(O)C(=O)N(c2ccc(O)cc2)C1c1ccccc1[N+](=O)[O-] (centres undefined),i
CCOC(=O)C(NCCCCl)c1ccccc1 (centres undefined),i
CCC(CC)C(=O)Nc1cccc(/C(C)=N\NC(=O)c2ccc(C)s2)c1,i
O=C(COc1ccc(S(=O)(=O)N2CCOCC2)cc1)NCCCn1ccnc1,i
CCc1cccc(NC(=O)NC2CCCCC2)c1,i
Cn1c(=O)n(Cc2ccccc2)c(=O)c2c1nc1n2CCN1Cc1ccco1,i
Fc1ccc(Cl)cc1/C=N/n1cnnc1SCc1ccccc1,i
CC1CCCN(c2ccc(F)cc2N)C1 (centres undefined),i
COCCn1cc(C(=O)NCCCN2CCC(C)CC2)c2c3ccccc3n(C)c2c1=O,i

Some of the entries so far, with each value named:
structure: CCOC(=O)c1cc(C)sc1NC(=O)CSC1=NCCS1
  CHT PAM = i
structure: Cc1nc2scc(C)n2c(=O)c1S(=O)(=O)N1CCN(c2ccccc2)CC1
  CHT PAM = i
structure: CC(=O)Nc1ccc2c(c1)OCCOCCOc1cc(NC(C)=O)ccc1OCCO2
  CHT PAM = i
structure: O=C(CSc1nnc(Cn2c(=O)sc3ccccc32)n1-c1ccccc1)NCc1ccco1
  CHT PAM = i

An excerpt; most or all hits stand in other tables.
